# Screens deposited in PubChem by National Center for Advancing Translational Sciences (NCATS).
# 2A StopGo: High Throughput Screening for Foot and Mouth Disease Virus Antivirals. human cells with a luciferase reporter of 2A StopGo recoding; control for the full effect not named in the record. Potency, µM (titrated, usually from 57.9 µM), for the others: at the highest dose signal change, negative = less light. actives 1.2% (n = 410,000); active = well fitted falling curve with a large enough effect; inconclusive = small, poorly fitted or top-dose-only effect; inactive = no such curve, though single readings can be large or run the other way; tested in HEK293T cells; note: nearly all actives have a fitted effect of over 45% in size; luciferase light after 4 h
# RE007 growth inh: qHTS Assay for Inhibitors of the HIV-1 protein Vpr | S. pombe RE007 Vpr strain, BacTiter-Glo ATP luminescence, 24 h; control for the full effect not named in the record | Potency, µM (doses to about 92.2 µM), without a hit: at the highest dose activity change, negative = less growth | AID 651644, 2012 | actives 0.21% (n = 360,000); active = well fitted falling curve with a large enough effect; inconclusive = small, poorly fitted or top-dose-only effect; inactive = no such curve, though single readings can be large or run the other way;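 note: nearly all actives have a fitted effect of over 50% in size; the assay follows cell death caused by Vpr and the record does not say whether a fall means rescue or toxicity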
#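 Fission yeast RE007 carrying one integrated HIV-1 vpr copy, seeded at OD 0.01 in PMG+AL medium with 23 nL pinned compound. Grown 24 h at 30 degrees; viability read by BacTiter-Glo luminescence after 5 min.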
# * hit, by the source's call; ? = inconclusive; [ ] = another dose, or the depositor's remark. % is set by controls: 0 for no effect and ±100 for the full control effect; potency is the fitted concentration of half-maximal effect. Some of the compounds tested; the hit share may differ from the screen's.
SMILES,2A StopGo,RE007 growth inh
CCc1noc(C)c1C(=O)N1CCN(c2cccc(Cl)c2)CC1,?,-5%
CC(C)n1nnnc1C1c2ccccc2C(=O)N1Cc1ccco1 (stereo not drawn),-6%,22%
CC(C)C[C@H](NC(=O)/C=C/[C@H]1O[C@@H](n2ccc(=O)[nH]c2=O)[C@H](O)[C@@H]1O)C(=O)O,-11%,5%
O=C(NCCN1CCN(Cc2ccccc2)CC1)c1ccc(CS(=O)(=O)c2c(Cl)cccc2Cl)o1,?,-18%
CCOC1=CC2=C(C(=O)C(Cl)=CC2=O)[C@@H]2CN(S(=O)(=O)c3ccc(C)cc3)[C@@H](c3ccccc3)[C@H]12,?,6%
CC(=O)Nc1cccc(Oc2nc(NC(C)C)nc3cc(-c4ccccc4)sc23)c1,28%,1%
N#CCc1ccc(OCCCN2CCC(C(O)(c3ccccc3)c3ccccc3)CC2)cc1,-25%,-17%
COc1cccc(CNC(=O)C2(C)CCCN2C(=O)C(C)C)c1 (stereo not drawn),?,9%
COc1ccc(-n2nnnc2C(c2ccccc2)N2CCC(n3c(=O)[nH]c4ccccc43)CC2)cc1 (stereo not drawn),0%,-3%
COc1cccc(CN2CCC2(C)C(=O)Nc2ccc3c(c2)OCO3)c1F (stereo not drawn),-4%,-27%
COc1ccc(-c2cc(NC=O)c3ncc(-c4ccc(OC)c(OC)c4)n3c2)cc1OC,?,-3%
O=C(OCc1cn([C@H]2C[C@H](c3ccc(Cl)cc3)N(C(=O)c3cccs3)C[C@@H]2O)nn1)c1ccccc1,3%,2%
CC[C@H](C)/C=C/C1=CC2=C(Cl)C(=O)[C@@]3(C)OC(=O)C(C(=O)[C@H](C)[C@@H](C)O)=C3C2=CO1,?,?
O=C(NCc1ccccc1)C(c1ccc(F)cc1)N1CCN(C(=O)C2CCCO2)CC1 (stereo not drawn),-9%,6%
Cn1c(-c2ccccc2)c(Sc2ccccc2)c2cc(-c3ccc4cc[nH]c4c3)ccc21,-21%,5%
Cc1c(C(=O)NCc2ccc([N+](=O)[O-])cc2)sc(=O)n1Cc1ccc2c(c1)OCO2,-26%,-17%[18.4 µM]
O=C(Nc1ccn(CCCNCC2CCCCC2)c(=O)n1)OCc1ccccc1,-16%,-23%
Cc1ccc(C(=O)Nc2cccc(S(=O)(=O)N3CCCCC3)c2)cc1S(=O)(=O)N1CCOCC1,?,-8%
CC1(C(=O)N2CCCCC2)CCN1C(=O)c1ccccc1CCc1ccccc1 (stereo not drawn),9%,3%
C[C@@H]1CN([C@@H](C)CO)C(=O)c2cc(Br)cnc2O[C@H]1CN(C)C(=O)C1CCCCC1,-18%,-5%
CN1CCN(C(=O)c2cc3c(c(-c4cccc(-c5cc6ccccc6o5)c4)n2)[C@H](CCO)N(S(=O)C(C)(C)C)C3)CC1 (stereo partly drawn),-16%,-22%
Cc1cc(O)ccc1-c1cccc2nccn12,-18%,-21%
OCCCN1CNC(=S)NC1,-16%,3%
COc1ccc(NC(=O)c2ccc(-c3c(C)noc3C)c3ccoc23)cc1,-15%,-3%
Cc1c(C(=O)NCc2ccco2)sc(=O)n1Cc1ccc(S(C)(=O)=O)cc1,-19%,-6%[18.4 µM]
CC(=O)NC12CC3CC(C1)CC(C(=O)N1CCN(S(=O)(=O)c4ccc([N+](=O)[O-])cc4)CC1)(C3)C2,-2%,17%
NC(=O)C1CCN(C(=O)c2ccc3ncsc3c2)CC1,-23%,10%
CC1=C(C(=O)N(C(C)C)C(C)C)CC(CC(=O)NCCc2ccccn2)C(=O)N1Cc1ccc(C(C)(C)C)cc1 (stereo not drawn),-10%,-30%
CN1CCN(C2CN(Cc3cn(Cc4cccc(Cl)c4)nn3)S(=O)(=O)C2)CC1 (stereo not drawn),-1%,5%
CC(=O)c1ccc(OCC(=O)NC(=O)NC2CCCC2)cc1,?,-2%
C[C@H](CO)N1C[C@H](C)[C@@H](CN(C)C(=O)CN2CCOCC2)Oc2cc(Br)ccc2S1(=O)=O,-6%,-27%
COc1cccc(N2[C@@H](CC(C)=O)c3ccccc3S2(=O)=O)c1,40%[activator],-4%
C[C@@H]1CN([C@@H](C)CO)C(=O)CCCn2nncc2CO[C@H]1CN(C)C(=O)c1ccccc1,-12%,-11%
CCNC(=O)C1(C)CCCN(C(=O)c2ccc(C(F)(F)F)nc2C)C1 (stereo not drawn),-9%,-7%[18.4 µM]
COC(C[C@H](O)CC(=O)[C@@H](C)OCc1ccccc1)OC,-8%,-8%
Cc1ccc(N2CCN(C(C(=O)Nc3c(C)cccc3C)c3cccc(F)c3)CC2)cc1 (stereo not drawn),-11%,-9%
O=c1c(-c2ccco2)nc2ccccc2n1C(CCc1ccccc1)c1nc2ccccc2[nH]1 (stereo not drawn),-2%,-4%
CN(C)c1ccc(CNC(=O)/C=C/[C@H]2O[C@@H](n3ccc(=O)[nH]c3=O)[C@H](O)[C@@H]2O)cc1,-17%,2%
Cc1ccc(S(=O)(=O)N2C[C@]3(O)C[C@@H]4C(=O)N(c5ccccc5)C(=O)[C@@H]4C[C@]3(OC(=O)NCC3CCCCC3)C2)cc1,11%,-8%
O=C(O)C1C2CCC(O2)C1C(=O)Nc1ccc(Br)cc1F (stereo not drawn),-2%,-1%
CSCCC(c1nc2ccccc2[nH]1)n1c(=O)c(-c2ccco2)nc2ccccc21 (stereo not drawn),5%,0%
Cc1ccc(Cc2c(-c3ccc(Br)cc3)nc3cc(C)ccn23)cc1,13%,6%
COc1ccccc1C(=O)N/C(=C\c1cn(S(=O)(=O)N(C)C)c2ccccc12)C(=O)N1CCN(C)CC1,13%,-11%
CC(C)(C)c1ccc2cc(F)cc(F)c2n1,-11%,5%
COc1cccc(-c2nc3nc(C)cc(C)n3c2NC2CCCC2)c1,-9%,?

# Brought forward from above: 5 compounds, then new ones.
SMILES,2A StopGo,RE007 growth inh
CSCCC(c1nc2ccccc2[nH]1)n1c(=O)c(-c2ccco2)nc2ccccc21 (stereo not drawn),5%,0%
Cc1ccc(Cc2c(-c3ccc(Br)cc3)nc3cc(C)ccn23)cc1,13%,6%
COc1ccccc1C(=O)N/C(=C\c1cn(S(=O)(=O)N(C)C)c2ccccc12)C(=O)N1CCN(C)CC1,13%,-11%
CC(C)(C)c1ccc2cc(F)cc(F)c2n1,-11%,5%
COc1cccc(-c2nc3nc(C)cc(C)n3c2NC2CCCC2)c1,-9%,?
CCOC(=O)c1ccc(NC(=O)c2c(N)n(Cc3ccccc3)c(=O)[nH]c2=O)cc1,0%,-2%
O=C(NC(c1ccccc1)c1ccsc1)C1CCN(Cc2ccc(Cl)c(Cl)c2)CC1 (stereo not drawn),-21%,-9%
CC(C)S(=O)(=O)N1CCCC(c2cc(C(=O)NCc3cccnc3)no2)C1 (stereo not drawn),-21%,-22%[18.4 µM]
CC(=O)C(=Cc1cccc(C#N)c1)C(=O)c1ccccc1,13µM*,-2%[18.4 µM]
Cc1ccccc1C(c1ncccc1C)N(C)C(=O)C1CCN(CCOc2ccc(Cl)cc2Cl)CC1 (stereo not drawn),-5%,0%
NC(c1csc(Nc2ccc(C(=O)NCCCO)cn2)n1)c1ccccc1Cl (stereo not drawn),-16%,-8%
CCc1nc2c(OCC(=O)N3CCOCC3)cccn2c1N(C)C(=O)COc1ccccc1,-4%,-3%
CC(C)c1cc(Cn2c3ccccc3c(=O)n2C(C)Cn2cc(-c3ccccc3)nn2)on1 (stereo not drawn),-7%,-3%
O=C(COC(=O)c1ccc(Cl)c(S(=O)(=O)N2CCCCC2)c1)NC1CCCCC1,-25%,1%
O=CN1c2ccccc2CSc2ccccc21,-13%,6%
CCOC(=O)C1(C)CCN1C(=O)COc1ccc(C(C)(C)C)cc1 (stereo not drawn),-10%,-9%
O=C1NC[C@H](Cc2ccc(O)cc2)N(C[C@H]2CCCN2C[C@H](Cc2ccc(O)cc2)N2C[C@H](Cc3ccc(O)cc3)N(CCc3ccccc3)C(=O)C2=O)C1=O,-16%,-7%
C(=C\c1ccccc1)/CN1CCN(C(c2cccs2)c2nnnn2-c2ccc3c(c2)OCCO3)CC1 (stereo not drawn),-19%,?
CCC(=O)[C@@H](C)[C@@H](O)[C@H](C)C[C@@H](C)C1OC(=O)C[C@@]2(O)CC=C(C)C(O2)C(C)=CCCC[C@H](O[C@H]2C[C@@H](OC(N)=O)[C@H](O)[C@@H](C)O2)C=C[C@H](C)C[C@H]1C (stereo partly drawn),18µM*,7%
Cc1nc2nc(-c3ccccc3)nn2c(C)c1C,60%[activator],-1%
CC(=O)Nc1ccc(NC(=O)c2cc(-c3cc(F)ccc3OCC3CCCO3)n[nH]2)cc1 (stereo not drawn),?,-8%
C=CCN([C@H](C(=O)OC)C(C)C)S(=O)(=O)CCNCc1ccccc1,-18%,-21%
COc1ccc(C(C)(NC(C)=O)c2nc(-c3cccc(C#N)c3)cs2)cc1 (stereo not drawn),-3%,5%[18.4 µM]
COC(C[C@H]1O[C@H]1C(=O)[C@H](C)OCc1ccccc1)OC,0%,-2%
CC(C)NC(=O)Nc1ccc2c(c1)C(=O)N([C@@H](C)CO)C[C@H](C)[C@H](CN(C)S(=O)(=O)c1ccccc1)OCCCC[C@H](C)O2,-2%,1%
CC1(C(=O)NS(=O)(=O)c2cccs2)CCN1C(=O)CC1CCCC1 (stereo not drawn),-16%,0%
Nc1cc(=O)c2[nH]cnc2[nH]1,-6%,9%
COC(=O)[C@]12CCCCC=C1N(Cc1cccc3ccccc13)C(=O)[C@H](CC(=O)NCc1ccc(OC)c(OC)c1)C2,14µM*,1%
NC(Cc1ccc(Cl)cc1)c1csc(Nc2cc(NCCCO)ncn2)n1 (stereo not drawn),-29%,-9%[18.4 µM]
CC1(Cc2ccc(OC(F)(F)F)cc2)C(=O)Nc2ccc(OC(F)(F)F)cc21 (stereo not drawn),-29%,?
O=C1c2ccccc2C(c2nnnn2Cc2ccccc2)N1CCc1c[nH]c2ccccc12 (stereo not drawn),23%,2%
O=C(O)c1ccc(CNC(=O)C2CCN(S(=O)(=O)c3ccc4c(c3)OCCO4)CC2)cc1,-12%,-3%
Cc1ccc(N2CCN(C(CCc3ccccc3)C(=O)Nc3c(C)cccc3C)CC2)cc1 (stereo not drawn),-16%,5%
CCCNC(=O)C1(C)CCCN(Cc2cc3ccccc3o2)C1 (stereo not drawn),-15%,-27%
O=C(NCc1ccc(F)cc1)c1cc(C2CCCCN2C(=O)c2cccs2)on1 (stereo not drawn),-2%,-4%

# Reprinted at random: six records from the list.
SMILES,2A StopGo,RE007 growth inh
Cc1ccc(N2CCN(C(CCc3ccccc3)C(=O)Nc3c(C)cccc3C)CC2)cc1 (stereo not drawn),-16%,5%
O=C1c2ccccc2C(c2nnnn2Cc2ccccc2)N1CCc1c[nH]c2ccccc12 (stereo not drawn),23%,2%
CC(C)NC(=O)Nc1ccc2c(c1)C(=O)N([C@@H](C)CO)C[C@H](C)[C@H](CN(C)S(=O)(=O)c1ccccc1)OCCCC[C@H](C)O2,-2%,1%
COC(C[C@H]1O[C@H]1C(=O)[C@H](C)OCc1ccccc1)OC,0%,-2%
CC1(C(=O)NS(=O)(=O)c2cccs2)CCN1C(=O)CC1CCCC1 (stereo not drawn),-16%,0%
CC1(Cc2ccc(OC(F)(F)F)cc2)C(=O)Nc2ccc(OC(F)(F)F)cc21 (stereo not drawn),-29%,?

# (further entries)
SMILES,2A StopGo,RE007 growth inh
O=C(NCc1ccncc1)[C@@H]1CCCN1C(=O)[C@H]1CCCN1C(=O)c1cccc2ccccc12,-21%,-4%
COc1ccc(C)cc1-n1cnc2sc(C)c(C)c2c1=O,-4%,3%
COc1ccc(Cc2c(-c3ccc(Cl)cc3)nc3cc(C)c(Br)c(C)n23)c(C)c1,-19%,0%
CCCS(=O)(=O)NC(=O)C1(C)CCN(C(=O)c2ccc(OC)cc2OC)C1 (stereo not drawn),2%,4%
CN(C(=O)CN1CCN(c2cc(-c3ccc(-c4ccccc4)cc3)ncn2)CC1)c1ccccc1,22µM*,-8%
CC(C)C[C@H]1CN(CCCC[C@H]2CNC(=O)C(=O)N2CC2CCCCC2)C(=O)C(=O)N1CC1CCCCC1,-19%,2%
O=C(Nc1nnc([C@H]2C[C@H](O)[C@@H](CO)O2)s1)c1cccc(OC(F)(F)F)c1,-11%,-1%[18.4 µM]
CCCCn1nnnc1C1(C)CCC(=O)N1CCCN1CCOCC1 (stereo not drawn),-3%,0%
CCN(C(=O)c1ccc(NC(=O)C2CCCCC2C(=O)O)cc1)c1ccccc1 (stereo not drawn),-16%,14%
COc1ccc(CCn2c(-c3cccc([N+](=O)[O-])c3)nc3nc4ccccc4nc32)cc1,?,7%
COc1ccc(Nc2cc(C)nc3ccc(C)cc23)cc1,-5%,9%
CN1Cc2cnnn2-c2ccccc2C1c1ccccc1 (stereo not drawn),-12%,3%
COc1ccc(Cc2c(C(C)(C)C)nc3ccc(Br)cn23)c(C)c1,-16%,-5%
